# Mtb growth = Confirmatory growth inhibition assay against Mycobacterium tuberculosis H37Rv, potency (AID 1949). hit rate 1.6% among 100,000. inhibition, % at 10 µg/mL; hits with a dose series show IC50 in µg/mL. most inactive calls were filed without a number and no value below 0 was filed;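 active = confirmed in a dose series; inconclusive = about 50% or more but not retested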;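 also: bacteria grown 7 days with compound before Alamar blue readout; 0% = untreated bacteria and 100% = reference antibiotic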
# An asterisk follows results filed as active; i = inactive; ? = inconclusive.
SMILES	Mtb growth
CCCc1ccc(OCc2ccc(C(=O)Nc3cccc(C)n3)o2)c(OC)c1	0.1%
CCOC(=O)C1CCN(C(=O)CN(c2ccc(OC)c(OC)c2)S(C)(=O)=O)CC1	i
COc1ccc(NC(=O)COc2nc(N(C)C)nc(N(C)C)n2)cc1	i
COCCSc1ccccc1C(=O)NCC1CCCO1 (stereo not drawn)	i
Cc1ccnc(NS(=O)(=O)c2ccc(NC(=O)C(C)Oc3cccc(Cl)c3)cc2)n1 (stereo not drawn)	i
CCOCCCn1c(=N)c(S(=O)(=O)c2ccc(Cl)cc2)cc2c(=O)n3ccccc3nc21	i
Cc1ccc2nc(Nc3nc(CSc4nnnn4-c4ccccc4)cc(=O)[nH]3)nc(C)c2c1	i
CCN(CC)C(=O)COc1ccc2oc(C)c(C(=O)OC(C)C)c2c1	i
CNCCOc1ccccc1-c1ccccc1	i
COc1cc(OC)c(C(c2c(C)[nH]c3ccccc23)c2c(C)[nH]c3ccccc23)c(OC)c1	i
CCCCOc1ccccc1N1C(=O)CC(Sc2ccccc2C(=O)O)C1=O (stereo not drawn)	i
C=CCN(CC=C)C(=S)NC(=O)c1ccc(F)cc1	0.81µg/mL*
CCn1c(SCC(=O)Nc2cccc(OC)c2)nnc1-c1ccc(C)cc1	i
COc1ccc2nc(-n3c(C)ccc3C)sc2c1	i
COC(=O)c1ccccc1NC(=O)C(C)Oc1cccc(Cl)c1 (stereo not drawn)	i
CS(=O)(=O)c1ccc2nc(NC(=O)c3ccc(Br)o3)sc2c1	5.9%
CC1CN(C(=O)c2ccccc2F)CCN1C(=O)c1ccccc1F (stereo not drawn)	i
O=C(O)c1ccc(CNC(=S)NCC2CCCO2)cc1 (stereo not drawn)	0.6%
CC(=O)Oc1ccc(Oc2ccc(-c3noc(C)n3)cc2)cc1	i
CCCOc1ccc(C(=O)Nc2ccc3oc(-c4ccc(F)cc4)nc3c2)cc1	i
COC(=O)c1sc(NC(=S)NCCC2=CCCCC2)c(C(=O)OC)c1C	i
CCCNC(=O)c1cccc(COc2ccc(Cl)cc2Cl)c1	33.7%
Cc1ccc2cccc(OC(=O)c3ccccc3)c2n1	i
Cc1cc(CO)c(C)n1-c1ccc(Cl)cc1	i
Cc1ccccc1OC1C(=O)N(Cc2ccc3c(c2)OCO3)C1c1ccc2c(c1)OCO2 (stereo not drawn)	i
CC1CN(CC(O)COc2ccc(Br)cc2)CC(C)O1 (stereo not drawn)	8.8%
CCN(CC)CCn1c(NCc2ccccc2OC)nc2ccccc21	i
O=C(CN(c1ccc([N+](=O)[O-])cc1)S(=O)(=O)c1ccccc1)Nc1cc(Cl)cc(Cl)c1	18.6%
COc1ccc(C2NC(=O)NC(C)=C2C(=O)Nc2ccccc2F)c(OC)c1 (stereo not drawn)	1.9%
O=C(C1CCN(CCCc2ccccc2)CC1)N(CCc1ccccc1)Cc1ccccc1	i

# No new results follow: entries from further up.
SMILES	Mtb growth
COC(=O)c1sc(NC(=S)NCCC2=CCCCC2)c(C(=O)OC)c1C	i
CCCNC(=O)c1cccc(COc2ccc(Cl)cc2Cl)c1	33.7%
Cc1ccc2cccc(OC(=O)c3ccccc3)c2n1	i

# (continued)
SMILES	Mtb growth
O=C(Oc1ccc(N(Cc2ccco2)C(=O)Cn2cnc3ccccc3c2=O)cc1)c1ccccc1F	i
O=S(=O)(Nc1ccc(-c2n[nH]c(=S)n2-c2ccccc2)cc1)c1cccs1	0.8%
Cc1ccc(C(C)C)c(OCCN2CCCCCC2)c1	i
CCN1C(=O)/C(=C/c2cc(Br)ccc2OCCOc2ccc(OC)cc2)SC1=S	i
NS(=O)(=O)c1ccc(NC(=O)c2cc3c(n(-c4ccc(Cl)cc4)c2=O)CCCC3=O)cc1	i
Cc1cc(C)c2cccc(NC(=O)C(C)N3C(=O)c4ccccc4C3=O)c2n1 (stereo not drawn)	i
CCC(C)c1ccc(OCC(=O)Nc2sc3c(c2C#N)CCC3)cc1 (stereo not drawn)	i
COC(=O)Cc1c(C)c2ccc(OCC(=O)N3CCOCC3)c(C)c2oc1=O	i
CC(C)CC(=O)Nc1ccc2oc(-c3ccc(Cl)c(Cl)c3)nc2c1	4.6%
Cc1cc(C)cc(NC(=O)CN(c2cc(C(F)(F)F)ccc2Cl)S(=O)(=O)c2ccccc2)c1	4.2%
CSc1ccc(S(=O)(=O)N2CCN(Cc3ccccc3)CC2)cc1	i
CCCn1cc(/C=C(/C#N)c2nc3ccccc3[nH]2)c2ccccc21	5.8%
CCOc1ccccc1NC(=O)CN(Cc1ccc(Cl)cc1)S(=O)(=O)c1ccc(C)cc1	1.0%
COc1cc(C(=O)Oc2ccc3c(C)c(C)c(=O)oc3c2)cc(OC)c1OC	1.7%
COc1ccc(N2C(=O)C(Cl)=C(NCc3ccccc3)C2=O)cc1	i
CC(=O)c1ccc(NC(=O)NNC(=O)c2ccc(-c3ccccc3)cc2)cc1	i
CCOC(=O)c1[nH]c(C)c(/C(O)=C2\C(=O)C(=O)N(CCN(CC)CC)C2c2ccncc2)c1C (stereo not drawn)	i
COC(=O)C1=CN(c2ccc(F)c(F)c2)C=C(C(=O)OC)C1c1cc(OC)ccc1OC	i
CC(C)Cc1ccc(S(=O)(=O)N2CCN(c3ccccn3)CC2)cc1	i
CC(CNCC1CCCO1)COc1ccccc1 (stereo not drawn)	i
Cc1ccc(NC(=S)NCc2cccs2)c(C)c1	0.1%
O=C(O)CCSc1nc2ccccc2n1-c1ccccc1	i
Cn1c(=O)n(Cc2ccco2)c(=N)c2c3c(sc21)COC(C)(C)C3	2.5%
CCCc1nnc(NC(=O)Cc2coc3ccc(CC)cc23)s1	i
COc1cccc(NC(=O)CN(c2ccc(C(C)C)cc2)S(C)(=O)=O)c1	i
COC(=O)c1cc(C)sc1NC(=S)Nc1ccc(OC(F)(F)F)cc1	i
O=S(=O)(Nc1cccnc1)N1CCOCC1	i
C=CCc1cc(C)ccc1OCCOCCN1CC(C)CC(C)C1 (stereo not drawn)	3.7%
C=CCn1c(SCC(=O)Nc2ccc3c(c2)OCCO3)nc2sc(C)c(C)c2c1=O	0.3%
O=C1CCC(=O)N1OCCCOc1ccc2c(c1)CCC2	4.1%

# Going on with the list.
SMILES	Mtb growth
COc1cc(C2NC(=S)NC(C)=C2C(C)=O)cc(I)c1O (stereo not drawn)	i
CCc1ccc(OCc2nnc(SCC(=O)c3ccc(OC)cc3)o2)cc1	1.4%
O=C(NCC(=O)c1cccs1)c1ccc(-c2cc(Cl)ccc2Cl)o1	i
COC(=O)C1=CN(CCc2ccccc2)C=C(C(=O)OC)C1c1ccc2c(c1)OCO2	4.1%
COC(=O)c1ccc(C(=O)OC)c(NC(=O)C(OC)c2ccccc2)c1 (stereo not drawn)	i
CC(C)(C)C(=O)c1cn(CC(=O)NCc2ccco2)c2ccccc12	i
CCC1CCCCN1C(=O)c1ccc(SC)cc1OC (stereo not drawn)	i
CCC1(C)Cc2c(sc3nnn(CC(=O)N(c4ccccc4)c4ccccc4)c(=O)c23)CO1 (stereo not drawn)	i
CC(C)(C)c1ccc(CNC(=O)C2CCCN2S(=O)(=O)c2ccc3ccccc3c2)cc1 (stereo not drawn)	7.3%
CC(CNC(=O)C1CCCCC1C(=O)O)c1ccccc1 (stereo not drawn)	i
CC(=O)Nc1ccc(S(=O)(=O)N2CCN(C(C)CCc3ccccc3)CC2)cc1 (stereo not drawn)	i
N#C/C(=C\c1cccs1)c1nc2ccc(Cl)cc2c(=O)[nH]1	i
CCOC(=O)C(C)n1cnc2scc(-c3ccc(Cl)cc3)c2c1=O (stereo not drawn)	?
Cc1cccc(OCCCC(=O)Nc2cccc(Cl)c2)c1	i
O=C(Nc1sc2c(c1C(=O)NCc1ccco1)CCC2)c1sc2ccccc2c1Cl	i
CCn1c(Cc2ccccc2)nnc1SCC(=O)Nc1nc(-c2ccccc2)cs1	i
O=C(COc1ccccc1Cl)NC1CC1	i
CCOC(=O)c1ccc(N2C(=O)CC(N3CCC(O)(c4ccc(Br)cc4)CC3)C2=O)cc1 (stereo not drawn)	i
Cc1cc(C)c2c(c1)C(O)(CC(=O)c1ccccn1)C(=O)N2 (stereo not drawn)	6.4%
O=C1CC(c2cc3c(cc2Br)OCO3)c2cc3c(cc2N1)OCO3 (stereo not drawn)	i
NC(=O)c1c(NC(=O)c2ccco2)sc2c1CCCCCC2	i
O=C(NCCc1c[nH]c2ccccc12)C(=O)Nc1ccc2c(c1)OCO2	i
C/C=C/c1ccc(OCCN2CC(C)OC(C)C2)c(OC)c1 (stereo not drawn)	1.6%
CC(C)n1c(SCC(N)=O)nc2ccccc21	i
CC(C)CNC(=O)c1ccccc1NC(=O)CN(c1ccc(C(C)C)cc1)S(C)(=O)=O	0.7%
COc1ccc(C2(C(=O)Nc3ccc(C)c(Cl)c3)CCOCC2)cc1OC	0.6%
CCn1cc(C(=O)O)c(=O)c2cnc(N3CCN(C(=S)NC(CC(=O)OC)C(=O)OC)CC3)nc21 (stereo not drawn)	i
O=C(CN(c1cccc(Cl)c1)S(=O)(=O)c1ccc(Cl)cc1)NCc1ccccn1	i
O=C(NNC(=S)NCC1CCCO1)c1ccc(COc2ccc3c(c2)CCC3)o1 (stereo not drawn)	i
CN1C(=O)C2C=CC=CC2N=C1SCC(N)=O (stereo not drawn)	i

# The final seven compounds of the section above lead into the next.
SMILES	Mtb growth
CC(C)n1c(SCC(N)=O)nc2ccccc21	i
CC(C)CNC(=O)c1ccccc1NC(=O)CN(c1ccc(C(C)C)cc1)S(C)(=O)=O	0.7%
COc1ccc(C2(C(=O)Nc3ccc(C)c(Cl)c3)CCOCC2)cc1OC	0.6%
CCn1cc(C(=O)O)c(=O)c2cnc(N3CCN(C(=S)NC(CC(=O)OC)C(=O)OC)CC3)nc21 (stereo not drawn)	i
O=C(CN(c1cccc(Cl)c1)S(=O)(=O)c1ccc(Cl)cc1)NCc1ccccn1	i
O=C(NNC(=S)NCC1CCCO1)c1ccc(COc2ccc3c(c2)CCC3)o1 (stereo not drawn)	i
CN1C(=O)C2C=CC=CC2N=C1SCC(N)=O (stereo not drawn)	i
COc1ccc([N+](=O)[O-])cc1NC(=S)Nc1ccc(Br)cc1Cl	i
CCOC(=O)C1CCN(S(=O)(=O)c2ccc(OC)c(Br)c2)CC1	i
Cn1cnnc1SCCCN1C(=O)c2cccc3cccc(c23)C1=O	i
COc1ccc(-c2nnc(SCC(=O)N3c4ccccc4Sc4ccccc43)n2C)cc1	i
Cc1ccc(S(=O)(=O)N(CC(=O)N2CCC(C)CC2)c2ccccc2C)cc1	i
O=C(CN1CCCC1)Nc1ccc(F)cc1	1.0%
CC(=O)Nc1ncc(Cc2ccc(Cl)cc2)s1	32.9%
C=CCNC(=O)C(=O)NCCN1CCOCC1	i
CCOc1cc(CNC(C)COC)ccc1OC (stereo not drawn)	i
O=C(NN1C(=O)c2ccccc2C1(O)Cc1ccccc1)c1ccccc1 (stereo not drawn)	i
COC(=O)c1sccc1NC(=S)Nc1sc2c(c1C(=O)OC)CCC2	i
CCOc1ccc(C2C(C(=O)c3cccs3)=C(O)C(=O)N2CCN(C)C)cc1 (stereo not drawn)	i
Cn1c(=O)n(C)c2cc(NC(=O)CSc3ncn(-c4ccccc4)n3)ccc21	i
COc1ccccc1-c1nc(N)nc(N)n1	1.1%
O=C(O)CC(c1ccccc1)c1cc(Br)ccc1O (stereo not drawn)	3.1%
CC(Sc1ccccc1)C(=O)Nc1ccccc1Br (stereo not drawn)	i
CSc1ccccc1NC(=O)CN(Cc1ccccc1Cl)S(=O)(=O)c1ccc(C)cc1	1.3%
CCN1CCN(CCCCOc2c(Cl)cc(C)cc2Br)CC1	i
Cc1c(Cl)cccc1NC1=CC(=O)CC(C)(C)C1	i
COc1cccc(OCC(=O)NCc2ccncc2)c1	i
Cc1cc(C)nc(NC(=O)COc2ccc3ccccc3c2)c1	1.2%
COC(=O)c1cc(OC)c(OC)cc1NC(=O)CC1CCCCC1	1.8%
COc1ccc(-c2nc(Nc3nc(C)cc(C)n3)n[nH]2)cc1OC	i
O=C(CN(c1ccc(Cl)cc1)S(=O)(=O)c1ccccc1)Nc1ccc(C(F)(F)F)cc1	i
CN(C)S(=O)(=O)NC1CCCCCC1	0.6%
O=C(Nc1ccccn1)c1csc2ccccc12	2.2%
CC(C)(C)NCCCCOc1cccc(Cl)c1Cl	i
O=C(Nc1ccc(CN2CCOCC2)cc1)c1cccc(OCc2ccccc2)c1	i
CCn1cc(C(=O)O)c(=O)c2cc(F)c(N3CCN(C(=S)NC(=O)c4ccc(F)c(F)c4)CC3)cc21	49.6%
O=C(COc1ccccc1)Nc1ccc([N+](=O)[O-])cc1	i

# Part of the list above in order of molecular weight, ascending.
SMILES	Mtb growth
Cc1c(Cl)cccc1NC1=CC(=O)CC(C)(C)C1	i
CC(Sc1ccccc1)C(=O)Nc1ccccc1Br (stereo not drawn)	i
COc1ccc(-c2nnc(SCC(=O)N3c4ccccc4Sc4ccccc43)n2C)cc1	i

# Continued.
SMILES	Mtb growth
O=C(NNC(=S)NCc1ccc(Cl)cc1)c1cccnc1	i
Cc1ccc(-c2cc(C(F)F)n3ncc(C(=O)NN4CCCCC4)c3n2)cc1	i
O=C(C(=O)N1CCN(c2cccc(Cl)c2)CC1)N1CCCCC1	i
Cc1c(NC(=O)c2ncn[nH]2)cccc1-c1nc2ccccc2o1	i
COc1ccc(OCCC(=O)N2CCC(Cc3ccccc3)CC2)cc1	3.2%
CCC(=O)N1CCN(c2ccccc2NC(=O)c2ccc(Cl)c(Cl)c2)CC1	i
Cc1cc(Br)ccc1OCC(=O)NCc1ccc(F)cc1	9.1%
Cc1cc(C(=O)O)c2cc3c(C(=O)O)cc(C)nc3cc2n1	i
CC1CN(CCOCCOc2ccccc2)CC(C)O1 (stereo not drawn)	i
Cc1cccc(NC(=O)CSc2nc3sc4c(c3c3ncnn23)CC(C)(C)OC4)c1	i

# Compound activity deposited in PubChem BioAssay by Southern Research Institute.

# Some of the compounds tested. The share of hits here may be higher or lower than overall.
